High-throughput results (PubChem)
Sa helicase inh: S. aureus DNA helicase inhibition; purified S. aureus helicase, fluorescence unwinding assay; about half of the hits fall short of the stated cut; inhibition, %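 (tested at about 80 µM)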; 120,000 compounds, 0.05% hits; AID 485395;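 active = both duplicates at 50% or more, or one of them with a favoured structure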;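 note: 0% = mean of negative control wells and 100% = mean of positive control wells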
MgrA-DNA mod: modulators of Staphylococcus aureus MgrA DNA binding; fluorescence polarization; inhibition, %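 (about 10 µg/mL by stock and volumes)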; 84,000 compounds, 0.13% hits;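 active = above 50% in either of two replicates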;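 note: 0% = protein plus DNA without compound and 100% = DNA alone without protein; higher means less MgrA bound to DNA so lower polarization; one replicate is shown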
The depositor's hits bear a star; nt = no result given; & = joins results of further samples.

MgrA-DNA mod | Sa helicase inh | Structure
nt | 11 | CC(C)Cn1c(=O)[nH]c2ccccc21
7.4 | -2 | O=C(O)c1cccc(N=C2NC(=O)C(CO)(CO)S2)c1
3.5 | nt | CC(C)(C)c1cc(CN2C(=O)c3ccccc3C2=O)cc(C(C)(C)C)c1O
-0.9 | -6 | O=C(Nc1cccnc1)c1ncoc1-c1ccc2ccccc2c1
nt | -36 | CC(=O)N1CCN(C2=Nc3cccc4cccc2c34)CC1
-1.4 | -3 | Cc1cc(=O)[nH]c(SCC(=O)N(c2ccccc2)c2ccccc2)n1
nt | 22 | CCOc1ccc(Nc2ncnc3c2cnn3-c2ccccc2)cc1
-2.7 | nt | CCSc1cc(C(F)(F)F)c(C(=O)Nc2ccc(Cl)cc2)cn1
1.9 | 0 | CC(C)Nc1nc(Cl)nc(NNC(=O)C(C)Oc2ccccc2)n1 (stereo not drawn)
nt | 13 | Cc1ccc(NC(=O)c2cc(C)on2)cc1
0.6 | 12 | Cc1cc2cc(CNC(=O)COc3ccc4ccccc4c3)ccc2n1C
nt | 14 | CCCN1C(=N)C(c2nc3ccccc3s2)=C(O)C1c1ccccc1 (stereo not drawn)
1.4 | -1 | CC1Sc2cc(S(=O)(=O)NCc3ccccc3)ccc2NC1=O (stereo not drawn)
nt | 2 | Cc1cc(C(=O)N2CCOCC2)n(-c2ccccc2)n1
nt | -1 | O=c1[nH]c2ccccc2n1CCCCl
nt | -7 | O=C(O)/C=C/c1csc(-c2ccc(F)cc2)n1
nt | -1 | O=C(CSc1nnc(Cc2ccccc2)o1)N1CCCC1
nt | 0 | O=c1[nH]cc(-c2ccc(Br)cc2)n1Cc1ccccc1
7.8 | 15 | CCNC(=O)CCSc1nc(C)cc(C)n1
nt | 12 | Cc1noc(C)c1COC(=O)CCC(=O)c1ccc(F)cc1
nt | -3 | CCC(=O)Nn1cnc2c(cnn2-c2ccccc2)c1=O
nt | 29 | CCCN(CCC)C(=O)c1noc2c1CC(C)CC2 (stereo not drawn)
2.5 | 1 | CCC(C)(C)NS(=O)(=O)Cc1ccccc1
0.6 | 9 | CC(C)c1ccc(N/C=C2/CCCCC2=O)cc1
nt | 5 | COc1ccc(CCNC(=O)c2ccc3c(Cl)c4c(nc3c2)CCC4)cc1OC

Looked up one by one from above:
MgrA-DNA mod | Sa helicase inh | Structure
nt | 2 | Cc1cc(C(=O)N2CCOCC2)n(-c2ccccc2)n1
nt | -7 | O=C(O)/C=C/c1csc(-c2ccc(F)cc2)n1
nt | 29 | CCCN(CCC)C(=O)c1noc2c1CC(C)CC2 (stereo not drawn)
nt | -3 | CCC(=O)Nn1cnc2c(cnn2-c2ccccc2)c1=O
-1.4 | -3 | Cc1cc(=O)[nH]c(SCC(=O)N(c2ccccc2)c2ccccc2)n1

(cont.)
MgrA-DNA mod | Sa helicase inh | Structure
-0.8 | 23 | CCC(C)c1ccc(NC(=S)N2CCN(S(C)(=O)=O)CC2)cc1 (stereo not drawn)
2.2 | -1 | CC(C)=C1C2C=CC1C1C(=O)N(c3ccccc3)C(=O)C21 (stereo not drawn)
1.4 | 5 | CCNC(=O)c1ccc(NS(C)(=O)=O)cc1
0.5 | -24 | O=C(COc1ccc(C(=O)c2ccccc2)cc1)NCC1CCCCC1
nt | -3 | Nc1c(C(=O)NCc2ccccc2)nnn1Cc1ccccc1
-0.7 | 12 | N#CC1=C(N)NC(SCC(N)=O)=C(C#N)C1c1ccccc1Cl (stereo not drawn)
-1.0 | nt | CCOC(=O)C1CCN(C(=S)Nc2ccccc2C(F)(F)F)CC1
nt | -4 | COc1ccc(SCC(=O)c2ccc(O)cc2O)cc1
-3.0 | 7 | Cc1ccc(C(=O)NCCn2cccc2)cc1
2.5 | -9 | N#C/C(=N/O)c1nc2ccccc2s1
nt | -11 | S=C(Cc1ccccc1)N1CCCCC1
4.2 | 13 | Cc1ccc(N(CC(=O)N2CCCCCC2)S(=O)(=O)c2c(C)noc2C)cc1
-1.1 | -10 | O=C(NO)c1cc(-c2ccccc2)nn1-c1ccccc1
-3.5 | 9 | Cc1cc(C)nc(NC2=NCC(=O)N2c2ccc(Oc3ccccc3)cc2)n1
nt | -21 | O=C(Nc1ccc(-n2cnnn2)cc1)C1(Cc2nc3ccccc3s2)CCCC1
-1.1 | 19 | CCC1CCCCN1C(=O)c1sc2nc(-c3ccccc3)cn2c1C (stereo not drawn)
nt | 12 | CCCOC(=O)CSc1n[nH]c(=O)[nH]c1=O
1.4 | -8 | CCc1cc(=O)oc2cc(O)cc(O)c12
1.9 | 4 | COc1nc(NCCc2ccc(OC)c(OC)c2)nc(Nc2ccc(Cl)cc2)n1
-1.1 | nt | Cc1n[nH]c(C)c1Sc1ccc(C(F)(F)F)cn1
-0.7 | nt | CS(=O)(=O)c1cc2cc(Cl)ccc2oc1=O
nt | 8 | Cc1cc2cc(CNS(=O)(=O)c3ccc(Cl)cc3)ccc2n1C
3.7 | 21 | CC1CCC(C)C(NC(=O)c2ccc(I)cc2)C1 (stereo not drawn)
nt | 9 | Cc1occc1C(=O)N/N=C/C=C/c1ccccc1
-2.1 | 8 | CSc1cccc2c(SC)cccc12

Two of these compounds, set out differently.
CCC1CCCCN1C(=O)c1sc2nc(-c3ccccc3)cn2c1C (stereo not drawn)
  MgrA-DNA mod: -1.1
  Sa helicase inh: 19

CCNC(=O)c1ccc(NS(C)(=O)=O)cc1
  MgrA-DNA mod: 1.4
  Sa helicase inh: 5

Later entries:
MgrA-DNA mod | Sa helicase inh | Structure
1.2 | 5 | CCCCc1cc(=O)oc2cc3oc4c(c3cc12)CCCC4
-4.6 | 2 | COc1ccccc1CN1CCC(C(=O)NCc2ccc(C)cc2)CC1
2.0 | 22 | O=C(N/C(=C/c1ccccc1)C(=O)N1CCc2ccccc2C1)c1ccccc1
-1.2 | 22 | Cn1nnnc1SCc1ccc(C(=O)Nc2ccc(Br)cc2)cc1
-1.9 | nt | O=C(Nc1ccc(Cl)cc1)c1sccc1Cl
0.6 | 24 | C=C(C)Cn1c(CCn2c3ccccc3c3ccccc32)nnc1SCC(=O)OC
nt | 8 | COc1ccc(-c2noc(CNC(=O)CC(C)(C)C)n2)cc1
2.0 | -21 | CNC(=O)COc1ccc(Oc2ccc(C)cc2)cc1
-0.2 | -7 | CC(C)N1CCCC(CN)C1 (stereo not drawn)
0.2 | 15 | CCOC(=O)c1c(N)sc(C(=O)N2CCOCC2)c1C
nt | 0 | CC(C(=O)O)n1c(=S)[nH]c2ccccc2c1=O (stereo not drawn)
0.7 | nt | O=S(=O)(Cc1ccc(F)cc1)Cc1noc(-c2ccno2)n1
-1.4 | -25 | O=C(O)COc1ccc(Nc2ccccc2)cc1
4.6 | nt | N#CCCNC(Cc1ccccc1)C(=O)O (stereo not drawn)
-1.3 | nt | CC(C)(C)OC(=O)Cn1ccc(=O)[nH]c1=O
-1.7 | -17 | COc1ccc(C(=O)COC(=O)c2cc(Br)ccc2Cl)cc1
0.2 | -3 | c1ccc(-n2ncc3c(N4CCOCC4)ncnc32)cc1
nt | 0 | Cn1nc(-c2ccccc2F)c2cc(C(=O)Nc3ccc4c(c3)OCO4)sc21
-1.0 | -7 | CN(C)CCNCc1cc2c(-c3cccc(F)c3)nn(-c3ccccc3)c2[nH]c1=O
-0.7 | nt | CSc1ccccc1CNC(=O)NC12CC3CC(CC(C3)C1)C2
1.8 | 7 | N#Cc1c(N)oc(-c2ccccc2)c1-c1ccccc1
1.5 | 15 | Nc1nnc(CCS(=O)(=O)c2ccc(Br)cc2)s1
nt | 8 | CC1CCC(NC(=O)c2cc3c(s2)CSC3)CC1 (stereo not drawn)
0.2 | -3 | CCc1ccc(/C=C2\C(=N)N3N=C(N4CCCC4)SC3=NC2=O)cc1
nt | 16 | COc1ccc(C(=O)Nc2sc3c(c2C(N)=O)CC(C)CC3)cc1OC (stereo not drawn)

As a working copy, some entries already given:
MgrA-DNA mod | Sa helicase inh | Structure
nt | 8 | CC1CCC(NC(=O)c2cc3c(s2)CSC3)CC1 (stereo not drawn)
0.2 | -3 | CCc1ccc(/C=C2\C(=N)N3N=C(N4CCCC4)SC3=NC2=O)cc1
nt | 16 | COc1ccc(C(=O)Nc2sc3c(c2C(N)=O)CC(C)CC3)cc1OC (stereo not drawn)

(continued)
MgrA-DNA mod | Sa helicase inh | Structure
nt | -12 | COc1ccc(Br)cc1CNC(=O)c1oc2ccc3c(c2c1C)C(=O)CC(C)(C)O3
nt | -10 | COC(=O)C(C)Sc1ncnc2sc(C)c(C)c12 (stereo not drawn)
nt | 25 | CC(C)(CC(=O)O)CC(=O)N1CCCN(c2nccc(C(F)(F)F)n2)CC1
4.1 | 2 | O=C(CSc1nnc(Cc2cccs2)n1Cc1ccco1)Nc1ccc(Br)cc1
-1.5 | nt | CCOC(=O)c1ccc(-c2ccc(/C=c3\sc4nc5ccccc5n4c3=O)o2)cc1
nt | -12 | O=C1c2ccccc2C(=O)N1CCCCN1C(=O)c2ccccc2S1(=O)=O
-1.7 | 7 | Cc1cc(C)cc(OCCCCn2cncn2)c1
5.0 | 5 | CCCN1c2cccc3cccc(c23)S1(=O)=O
nt | 10 | O=C(NCc1ccc2c(c1)OCO2)C1CC2C=CC1C2 (stereo not drawn)
-0.5 | nt | COc1ccc(N=Cc2cn(-c3ccc(OC)cc3)cc2C=Nc2ccc(OC)cc2)cc1
-2.3 | -13 | Cc1ccc(S(=O)(=O)NC(=O)c2cccn2C)cc1
2.5 | 12 | COC(CNC(=O)c1ccc(CS(=O)(=O)Cc2ccc(Cl)cc2)o1)OC
nt | 18 | Cc1noc(C(=O)NC2CCCCC2)c1Cl
nt | 19 | Nc1ccc(S(=O)(=O)NC2=NCCC2)cc1
0.6 | -1 | O=C(NCC1COc2ccccc2O1)c1cn(Cc2ccc(F)cc2)nn1 (stereo not drawn)
nt | 3 | CCCCn1c(-c2ccco2)nc2ccccc2c1=O
0.9 | -5 | COC(=O)COc1cccc(NC(=O)c2ccccc2F)c1
nt | 5 | O=C(COCc1cc(-c2ccc(F)cc2)on1)N(CC1CC=CCC1)CC1CCCO1 (stereo not drawn)
-1.9 | nt | O=C(Sc1ccccc1)c1ccc(C(F)(F)F)cc1
0.4&2.1 | nt | NCCc1cnc[nH]1
-0.7 | 15 | CCOc1ccccc1C(=O)NC1CCCCCC1
-0.1 | nt | O=S(=O)(Nc1cccc(CO)c1)c1cccs1
-3.2 | nt | Cc1ccc(C(=O)NCc2ccc3c(c2)CCO3)cc1C
nt | 4 | COc1ccc(NC(=O)CCc2nc3cc(S(=O)(=O)N4CCCCC4)ccc3n2C)cn1
nt | -19 | CCC1CCCCN1C(=O)c1cc2c(=O)oc3ccccc3c2s1 (stereo not drawn)

In a second layout: entries from further up.
Each structure is followed by: MgrA-DNA mod	Sa helicase inh
Nc1ccc(S(=O)(=O)NC2=NCCC2)cc1
→ nt	19
O=C(NCC1COc2ccccc2O1)c1cn(Cc2ccc(F)cc2)nn1 (stereo not drawn)
→ 0.6	-1
CCCCn1c(-c2ccco2)nc2ccccc2c1=O
→ nt	3

The results go on.
MgrA-DNA mod | Sa helicase inh | Structure
nt | -19 | COc1ccc(C(=O)NCc2nnc(SC(C)C)n2Cc2ccccc2)cc1
0.4 | 0 | Cc1ccc(Cl)cc1NC(=O)c1cc(NC(=O)C2CC=CCC2C(=O)O)ccc1N1CCOCC1 (stereo not drawn)
nt | -13 | O=C(NCc1cccnc1)C1CC(c2ccccc2F)=NO1 (stereo not drawn)
-1.2 | nt | Cc1ccc(S(=O)(=O)CCN2CCC(C(F)(F)F)CC2)cc1
nt | -8 | CN(C)S(=O)(=O)c1cccc(CN2C(=O)NC(CCc3ccccc3)C2=O)c1 (stereo not drawn)
-2.8 | 8 | CC(C)OCC(O)Cn1c2ccccc2c2ccccc21 (stereo not drawn)
1.0 | 19 | Cc1cc(C)n(-c2nc3ccccc3nc2NCC(C)O)n1 (stereo not drawn)
nt | 9 | CCC(C)(NC(C)=O)C(=O)NC1CCCC1 (stereo not drawn)
0.1 | -18 | CCC(Sc1nc(-c2ccccc2)c(-c2ccccc2)[nH]1)C(=O)O (stereo not drawn)
nt | -10 | CCOC(=O)c1cc(OC(=O)c2cccnc2)n(-c2ccccc2)n1
2.2 | nt | CCOC(=O)/C(=N\O)C1=CSC2=NNC(C)(C)N12
nt | 6 | Brc1ccc(-c2cnc(-c3ccccc3)o2)cc1
-1.1 | 7 | COC(=O)CNC(=O)c1cc2c(=O)[nH]c3ccccc3c2s1
nt | -5 | Cc1cnc(C(=O)OCC(=O)N2CC3(C)CC2CC(C)(C)C3)cn1 (stereo not drawn)
nt | 6 | Cc1nc(SCCO)c2c3c(sc2n1)CCC3
0.0 | 6 | O=C(Nc1cccnc1)C(Cc1ccccc1)N1C(=O)c2ccccc2C1=O (stereo not drawn)
nt | -6 | CN(C)C(=O)CSc1ccccc1C(=O)OCC(=O)NC1(C#N)CCCC1
nt | -2 | COc1ccc(-c2[nH]c3ccccc3c2SCCNC(C)=O)cc1
nt | -3 | CC(=O)Nc1cccc(OCCCNS(=O)(=O)c2cn(C)c(C)n2)c1
-1.3 | nt | COc1cc(-c2nc3ccccc3c(=O)n2NC(=O)c2ccccc2Br)cc(OC)c1OC
nt | 26 | CNC(=O)CN(c1cccc2ccccc12)S(C)(=O)=O
0.3 | 5 | Cc1ccc2cc(CCNC(=O)c3ccc(S(=O)(=O)N(C)C)cc3)c(=O)[nH]c2c1
nt | -9 | CC(Oc1ccc2oc3ccccc3c2c1)C(=O)NC(N)=O (stereo not drawn)
0.2 | 31 | Cc1ccccc1CN(CCO)Cc1ccccc1
nt | -25 | CCNc1nc(F)cc(F)n1
-1.5 | 5 | O=P(O)(c1ccccc1)c1ccccc1
0.3 | 0 | CC(C)C(=O)NN=C1CCC(=NNC(=O)C(C)C)CC1
-1.4 | -1 | Cc1cc(NC(=O)NC(=O)c2cccs2)n[nH]1

This is a subset, so the mix of outcomes need not match the whole.
